# H5N1 antiviral: antiviral screen in MDCK cells, H5N1 avian flu; cytopathic effect, luminescence, 72 h; active compounds read high; no value below 0 was filed and about half of the inactive calls have no number; reference of the scale not given here; inhibition, % at 50 µM; 96,000 compounds, 0.07% hits; AID 740; in the data active = inhibition above about 25%
# * marks the source's active call; other numbers are inactive results; i = inactive. This is a subset, so the mix of outcomes need not match the whole.
SMILES,H5N1 antiviral
CCOC(=O)Cc1csc(NC(=O)CN2C(=O)c3ccccc3S2(=O)=O)n1,0.1
Cc1cccc(NC(=O)CCn2ccnc2C)c1,0.3
COc1ccc(CCN(Cc2cc3cc(C)ccc3[nH]c2=O)C(=O)N2CCCC2)cc1OC,i
Cc1ccc(S(=O)(=O)NCCSc2nnc(N)s2)cc1,0.3
CCOC(=O)CNC(=O)Cn1cnc2ccc(S(=O)(=O)N3CCC(C)CC3)cc2c1=O,0.6
COCCNC(=O)C(c1ccco1)N(C(=O)Cn1nnc2ccccc21)c1ccccc1C (stereo unspecified),0.4
CCCCNC(=O)Nc1c(C(=O)OC)[nH]c2ccc(C)cc12,i
Cc1cc(C(=O)Nc2ccc(S(=O)(=O)Nc3onc(C)c3C)cc2)c(C)o1,i
O=C(CSCCO)Nc1ccccc1,0.5
CCNc1nc2ccccc2[nH]1,i
COc1cc(C(=O)Oc2ccc3c(c2)OCC3=O)cc(OC)c1OC,i
CC(C)CCNC(=O)CCS(=O)(=O)c1cccc2nonc12,0.5
O=S(=O)(NCCSc1ccccc1)c1ccc(F)cc1,i
O=CNC(=O)c1ccccc1C(=O)O,0.0
O=C(COc1ccc(Cl)cc1)NCc1nnc(SCC(=O)NC2CCCC2)o1,i

# The final three entries of the section before are carried over, then new ones follow:
SMILES,H5N1 antiviral
O=S(=O)(NCCSc1ccccc1)c1ccc(F)cc1,i
O=CNC(=O)c1ccccc1C(=O)O,0.0
O=C(COc1ccc(Cl)cc1)NCc1nnc(SCC(=O)NC2CCCC2)o1,i
CN(C)CCn1c(=S)[nH]c2ccccc2c1=O,i
COc1ccc(OCC(=O)NCc2cccnc2)cc1,0.1
Cc1ccc(C)c(NC(=S)NCc2cccn2C)c1,0.3
C/C(=N\N1CCN(C2c3ccccc3-c3ccccc32)CC1)c1cccnc1,i
COc1ccc(CNC(=O)Cc2csc(Nc3nc(=S)[nH]c4ccccc34)n2)cc1,i
O=C1CC(N2CC=C(c3ccc(F)cc3)CC2)C(=O)N1c1ccc(F)cc1 (stereo unspecified),i
COc1ccc(C(N)=O)cc1NC(=O)CC(O)(C(F)(F)F)C(F)(F)F,0.4
COc1ccc(CCn2c(N3CCN(C)CC3)nc3c2c(=O)[nH]c(=O)n3C)cc1,i
CN(C)c1oc(-c2ccco2)nc1C#N,1.2
O=C(NCc1ccc(F)cc1)C1CCCN(S(=O)(=O)c2cccc3nsnc23)C1 (stereo unspecified),i
CC1CCCN(C(=O)CSCC(=O)Nc2nc(-c3cccs3)cs2)C1 (stereo unspecified),i
CCN(CC)C(=O)c1sc2[nH]c(=S)n(-c3ccccc3)c(=O)c2c1C,0.1
COC(=O)COC(=O)c1ccc(Oc2nc(OC)nc(N(C)C)n2)cc1,0.1
Cc1cc(C(=O)Nc2c(C)cccc2C)n(-c2ccccc2)n1,i
COc1ccc(CN2C(=O)C(O)(CC(=O)c3c(C)n[nH]c3C)c3ccccc32)cc1OC (stereo unspecified),i
COc1ccc(-c2nc(C#N)c(NCC3CCCO3)o2)cc1 (stereo unspecified),1.4
Cc1cccc(NC(=O)Cn2c(=O)oc3ccccc32)c1,1.1
O=C(Cn1c(=O)oc2ccccc21)N1CCCCC1,0.2
O=C(NCCc1ccccc1)C1CCCN(C(=O)NC2CCCCC2)C1 (stereo unspecified),0.5
O=C(COC(=O)c1ccccc1)NCc1ccco1,0.7
Cc1onc(-c2ccccc2Cl)c1C(=O)N1CC(C)OC(C)C1 (stereo unspecified),i
O=C(Cn1c(=O)oc2ccccc21)N1CCN(c2ccccc2)CC1,0.4
CC(=O)Nc1ccc(S(=O)(=O)NNC(=O)COc2ccc(C(C)(C)C)cc2)cc1,1.4
O=C(Nc1nc(-c2ccc3c(c2)OCO3)cs1)C1COc2ccccc2O1 (stereo unspecified),i
O=C(COC(=O)c1cnccn1)c1ccccc1,i
COc1ccc(S(=O)(=O)N[C@@H](CC(C)C)C(=O)O)cc1,i
S=c1[nH]nc(-c2cccnc2)n1/N=C/c1cccs1,0.6
CCOC(=O)N1CCC(NC(=O)c2ccc(CS(=O)(=O)c3ccc(OC)cc3)o2)CC1,0.1
CCc1[nH]c(=O)c(C#N)c2c1CSC(C)(C)C2,0.1
CSCCC(NC(=O)c1cncc(Br)c1)C(=O)O (stereo unspecified),i
CCOC(=O)C1CCCN(C(=O)c2cc(-c3ccccc3)on2)C1 (stereo unspecified),0.8
CCOc1cc(/C=C(/C#N)c2ccc(F)cc2)ccc1OCc1ccc(C(=O)O)o1,i
COc1ccc(N2C(=O)CCC(C(=O)O)C2c2ccc(OC)c(OC)c2)cc1 (stereo unspecified),1.3
COc1ccccc1OCC(=O)N1CCNC1=O,i
O=C(O)c1ccc(NC(CSCc2cccc(F)c2)C(=O)O)c([N+](=O)[O-])c1 (stereo unspecified),0.4
CC1CN(CN2C(=O)c3ccccc3C2=O)CC(C)O1 (stereo unspecified),0.5
Cc1cc(C)cc(NC(=O)C2(c3ccccc3)CC2(Cl)Cl)c1 (stereo unspecified),20.4
CCCn1c(SCC(=O)/C(C#N)=C(\C)N)n[nH]c1=O,0.6
COc1cc(-c2nc3n(n2)C(c2cccc(OC)c2OC)C2=C(CCCC2=O)N3)cc(OC)c1OC (stereo unspecified),i
CCN(CC)c1ccc2c(c1)OC(N)=C(C#N)C2c1cccnc1 (stereo unspecified),0.6
COc1cc(C(=O)N(CCc2ccccc2)C2CC3CCC(C2)N3C)cc(OC)c1OC (stereo unspecified),i
C=CCn1c(O)c(C(C)=NCCN2CCOCC2)c(=O)[nH]c1=O,0.8
CCS(=O)(=O)N1CCC(NC(=O)c2cc(OC)cc(OC)c2)CC1,i
Cc1ccccc1NC(=O)CC1(c2ccc(N(C)C)cc2)C(=O)c2ccccc2C1=O,0.7
O=C(OCc1nc2ccccc2s1)c1ccc(Br)s1,i
Clc1ccc(C2=CSC3=NCCN23)cc1Cl,i
O=C(COc1ccc(Br)cc1Br)NC(=S)N1CCCc2ccccc21,0.1
Cc1cc(C)n(-c2c(F)c(F)c(CN3CCOCC3)c(F)c2F)n1,0.1
Cc1cc(OCC(=O)N2CCc3ccccc3C2)c2c(-c3ccccc3)cc(=O)oc2c1,0.2
COC(=O)c1ccc(C2/C(=C(\O)c3ccc4c(c3)OCCO4)C(=O)C(=O)N2CCCN(C)C)cc1 (stereo unspecified),i
COC(=O)c1ccccc1NC(=O)c1cncc(Br)c1,0.4
COc1cccc(S(=O)(=O)Nc2cccnc2)c1,i
O=C(O)CCC(=O)N1CCc2cc(S(=O)(=O)NC3CCCc4ccccc43)ccc21 (stereo unspecified),1.1
CCCCn1c(=O)nc2n(-c3ccccc3)c3ccccc3cc-2c1=O,0.6
O=S(=O)(CC(O)COc1ccccc1Cl)c1ccccc1 (stereo unspecified),i
COC(=O)c1c(NC(=O)CN2CCN(c3ccccc3OC)CC2)c2cc(C)ccc2n1C,1.7
O=C(CSc1ccccc1)Nc1ccc(S(=O)(=O)NCC2CCCO2)cc1 (stereo unspecified),1.8
O=C(Nc1nncs1)c1cccc(S(=O)(=O)N2CCOCC2)c1,1.6
Cc1ccc(NC(=O)N2Cc3ccccc3CC2C(=O)NC(C)(C)C)cc1 (stereo unspecified),i
Cc1ccc(-c2noc(CSc3nnc(-c4ccccc4)n3C)n2)cc1,4.1

# Following part.
SMILES,H5N1 antiviral
CN(CCC#N)S(=O)(=O)c1ccc2c(c1)c(=O)n(C)c(=O)n2C,2.5
CCCCCCn1c(N(CC)CC)nc2c1c(=O)[nH]c(=O)n2C,3.5
O=C(NCc1ccco1)C(c1cccnc1)N(C(=O)Cn1nnc2ccccc21)c1ccc(F)cc1 (stereo unspecified),1.0
N#Cc1ccc(CSc2ncnc3c2cnn3Cc2ccccc2)cc1,i
CC(=O)c1cccc(NC2c3ncccc3C(=O)N2Cc2ccco2)c1 (stereo unspecified),0.8
CC1CC(=O)c2cn3c(nc2C1)nc1ccccc13 (stereo unspecified),1.5
Cc1nc(NC(N)=S)sc1C(=O)Nc1ccccc1,i
CCOC(=O)c1ccc(NC(=O)NCc2ccn(CC)n2)cc1,0.7
CC1CCN(c2ccccc2NC(=O)c2ccc(F)cc2)CC1,2.7
CC(=NCCCN(C)C)C1=C(O)c2ccccc2C1=O,i
C1CCC2(CC1)C1=C(CCCC1)Nc1nnnn12,2.0
c1ccc2[nH]c(CSc3nnc(-c4ccncc4)o3)nc2c1,i
CCN1CCN(c2nc3c(C)cccn3c(=O)c2/C=C(\C#N)S(=O)(=O)c2ccccc2)CC1,2.0
O=C(O)c1cccc(NC(=O)C23CC4CC(C2)CC(n2cnc(Cl)n2)(C4)C3)c1,1.1
COc1ccc(NC(=O)C(c2ccccc2)N(C)C(=O)c2cnccn2)cc1 (stereo unspecified),i

# In the list so far, these contain a thiophene ring, fused or not:
SMILES,H5N1 antiviral
CC1CCCN(C(=O)CSCC(=O)Nc2nc(-c3cccs3)cs2)C1 (stereo unspecified),i
CCN(CC)C(=O)c1sc2[nH]c(=S)n(-c3ccccc3)c(=O)c2c1C,0.1
S=c1[nH]nc(-c2cccnc2)n1/N=C/c1cccs1,0.6
O=C(OCc1nc2ccccc2s1)c1ccc(Br)s1,i

# New compounds follow:
SMILES,H5N1 antiviral
COC(=O)C1=C(C)N(c2ccc(C)cc2)/C(=C/c2cccs2)C1=O,i
N=c1n(CCN2CCCC2)c2ccccc2n1CC(O)c1ccco1 (stereo unspecified),2.6
CC(=O)OC(C(=O)NC1CCCCC1)c1ccc(C#N)cc1 (stereo unspecified),i
COCCn1c(SC)nnc1-c1c[nH]c2ccccc12,i
CCCn1nnnc1SCC(=O)N1CCCC1,i
Cn1c(=O)c2nc(-c3ccc(Cl)cc3Cl)oc2c2ccccc21,1.8
CNC(=S)N/N=C/c1c(C)nn(-c2ccccc2)c1Cl,0.9
CC1=CC(C)(C)N(C(=O)CSc2ncn[nH]2)c2ccc(C)cc21,3.5
S=c1[nH]nc(-c2ccc(Cl)cc2)n1CC1CCCO1 (stereo unspecified),1.3
CCOc1cc2[nH]c(=O)n(CCCC(=O)NCc3ccco3)c(=O)c2cc1OCC,i
COc1ccc(OCC(=O)Nc2cccc(NC(=O)COc3ccc(OC)cc3)n2)cc1,i
Cc1nc(C)c(C(=O)Nc2ccc(Oc3ccccc3)cc2)o1,i
CCOC(=O)c1cccc(NC(=O)CN(c2ccc(C)cc2)S(=O)(=O)c2c(C)noc2C)c1,i
COc1ccc(N2C(=O)CC(Sc3nnc(-c4ccccc4)o3)C2=O)cc1 (stereo unspecified),i
O=C(Nc1ccc2c(c1)OCCO2)N1CCN(c2ccc(F)cc2)CC1,1.4

# Rewritten as labelled records: part of the list above.
SMILES: CNC(=S)N/N=C/c1c(C)nn(-c2ccccc2)c1Cl
  H5N1 antiviral = 0.9
SMILES: N=c1n(CCN2CCCC2)c2ccccc2n1CC(O)c1ccco1 (stereo unspecified)
  H5N1 antiviral = 2.6
SMILES: COCCn1c(SC)nnc1-c1c[nH]c2ccccc12
  H5N1 antiviral = i

# Other compounds follow:
SMILES,H5N1 antiviral
COc1ccc(C2CC(C(F)(F)F)n3nc(C(=O)O)c(Cl)c3N2)cc1OC (stereo unspecified),0.6
COc1cc(C)c(Cl)cc1S(=O)(=O)NCC1CCCO1 (stereo unspecified),0.8
O=C(CSc1nnc2ncccn12)N1CCCCCC1,0.4
O=C(NC1CCCC1)C(c1ccc(F)cc1)N(C(=O)Cc1cccs1)c1ccc2c(c1)OCCO2 (stereo unspecified),i
CN(C)c1ccc(NC(=O)c2ccc3nsnc3c2)cc1,i
OCCN(CCO)CC(O)COc1ccc2c(c1)OCO2 (stereo unspecified),1.0
O=C(Nc1ccc(N2CCOCC2)cc1)Nc1ccc(Cl)c(Cl)c1,i
COc1cccc(N2CCN(C(=O)c3ccc(=O)oc3)CC2C)c1 (stereo unspecified),0.9
CC(NC(=O)c1noc2c1CCCCC2)c1ccccc1 (stereo unspecified),i
Cn1c(O)c(C(=NCCN2CCCCC2)c2ccccc2Cl)c(=O)n(C)c1=O,1.8
Nc1c(C(=O)NCC2CCCO2)sc(=S)n1-c1ccccc1 (stereo unspecified),i
CCCCC(=O)NC1=NC(=O)C(C)(C)S1,i
CCn1nc(C)cc1-c1n[nH]c(=S)n1N,i
CCC(C)(C)n1nnnc1C(c1ccc(Cl)cc1)N1CCN(C)CC1 (stereo unspecified),0.0
C/C(N)=C(/C#N)C(=O)COc1ncnc2ccccc12,i
CCCCS(=O)CC(O)COc1ccc(C(C)(C)C)cc1 (stereo unspecified),7.7
O=C(Cc1ccc(-c2ccccc2)cc1)NCCN1CCOCC1,0.1
CCCC(=O)NCCc1cc2ccc(C)c(C)c2[nH]c1=O,1.0
CCCOCCOC(=O)C1=C(C)NC(=O)NC1c1cc(Cl)c(O)c(OC)c1 (stereo unspecified),i
O=c1[nH]c2cnccc2n1-c1ccccc1,i
CCOC(=O)c1cnc2c(Cl)cccc2c1NCCN(C)C,0.3
COC(=O)c1c(NC(=O)c2ccccc2)sc(C(=O)c2ccccc2)c1C,i
CC(C)=C(NC(=O)c1ccco1)C(=O)NCCc1nc2ccccc2[nH]1,0.1
CCOc1cc2[nH]c(=S)n(CCC(=O)NCc3ccc(OC)cc3)c(=O)c2cc1OCC,i
O=C(O)c1ccc(NCc2cccnc2)cc1,0.5
O=C(O)CCCN1C(=O)NC2NC(=O)NC21 (stereo unspecified),i

# Taken from above:
# O=C(Cc1ccc(-c2ccccc2)cc1)NCCN1CCOCC1 in H5N1 antiviral is entered as 0.1
# CC(C)=C(NC(=O)c1ccco1)C(=O)NCCc1nc2ccccc2[nH]1 in H5N1 antiviral is entered as 0.1
# CCCCS(=O)CC(O)COc1ccc(C(C)(C)C)cc1 (stereo unspecified) in H5N1 antiviral is entered as 7.7

# Screens from PubChem.
